From PubChem
Rango release inh: inhibition of RanGTP-driven Rango-importin beta dissociation. O95149+P62826. actives 0.071% (n = 340,000). Biochemical FRET Rango-importin beta, RanGTP-induced dissociation. Potency, µM (doses to about 46.1 µM), for the others: at the top dose activity change, negative = inhibition. AID 540253; active means falling FRET ratio curve, often poorly fitted, with flat reads before Ran was added; inconclusive means other falling curves, or compound fluorescence or quenching; inactive means flat or rising ratio curve;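 further: potency means the concentration at half of the fitted maximal effect; % of control where 0% means no effect; nearly all actives have a fitted effect of over 45% in size; -100% = wells without RanGTP and RCC1; the record marks most hits as doubtful in a second field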
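Rango/importin beta premix (0.1/0.25 uM final), PBS + 1 mM DTT + 0.02% Tween-20 + 0.1% BSA; cpd 5 min RT; FRET pre-read; + RanGTP-RCC1 (0.6 uM Ran, 2 mM GTP, 0.2 uM RCC1); 45 min RT; FRET post-read, ex 430, em 486/530 nm.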
miR-21 FLuc: miR-21 reporter, rising signal. HeLa miR-21 FLuc reporter, luciferase, 48 h. Potency, µM (top dose mostly 38.3 µM), inactives show top-dose reporter change, positive = more light. 340,000 tested, under 10 active. AID 2288; active = well fitted rising curve with a large enough effect; inconclusive = small, poorly fitted or top-dose-only effect; inactive = no such curve, though single readings can be large or run the other way;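 further: % of control where 0% means no effect; miR-21 action dims this reporter so a rising signal means less miR-21 action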
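HeLa cells endogenously expressing miR-21, stably carrying CMV-driven firefly luciferase with a downstream miR-21 binding site, 2000 cells/well. Titrations up to approximately 40 uM, 48 hours; luciferase luminescence read.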
GLA inh pH 4.5: inhibitors of human alpha-galactosidase A at pH 4.5. P06280. purified enzyme, 4-MU-alpha-Gal fluorescence, pH 4.5. activity change, negative = inhibition, % at 105 µM. 230,000 tested, under 10 active. AID 1467; inconclusive = small, poorly fitted or top-dose-only inhibition, or a rising curve; inactive = flat fitted curve, though single readings scatter; no compound was filed as active;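 further: 0% = full activity with enzyme and -100% = basal without enzyme; dose as in the result columns while the protocol names 77 µM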
Rango complex inh: Rango-importin beta binding inhibition. Rango CFP/YFP FRET sensor + importin beta, 45 min. Potency, µM (top dose mostly 92.2 µM), for the others: top-dose inhibition of complex formation. Q14974. actives 0.031% (n = 340,000); active = rising FRET ratio curve, often small or poorly fitted; inconclusive = mostly compound fluorescence or quenching in the first reads; inactive = flat curves in all reads;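 further: potency means the concentration at half of the fitted maximal effect; 0% = DMSO wells and 100% = buffer wells lacking importin beta; nearly all actives have a fitted effect of over 15% in size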
Target sequence (Q14974 whole entry, looked up): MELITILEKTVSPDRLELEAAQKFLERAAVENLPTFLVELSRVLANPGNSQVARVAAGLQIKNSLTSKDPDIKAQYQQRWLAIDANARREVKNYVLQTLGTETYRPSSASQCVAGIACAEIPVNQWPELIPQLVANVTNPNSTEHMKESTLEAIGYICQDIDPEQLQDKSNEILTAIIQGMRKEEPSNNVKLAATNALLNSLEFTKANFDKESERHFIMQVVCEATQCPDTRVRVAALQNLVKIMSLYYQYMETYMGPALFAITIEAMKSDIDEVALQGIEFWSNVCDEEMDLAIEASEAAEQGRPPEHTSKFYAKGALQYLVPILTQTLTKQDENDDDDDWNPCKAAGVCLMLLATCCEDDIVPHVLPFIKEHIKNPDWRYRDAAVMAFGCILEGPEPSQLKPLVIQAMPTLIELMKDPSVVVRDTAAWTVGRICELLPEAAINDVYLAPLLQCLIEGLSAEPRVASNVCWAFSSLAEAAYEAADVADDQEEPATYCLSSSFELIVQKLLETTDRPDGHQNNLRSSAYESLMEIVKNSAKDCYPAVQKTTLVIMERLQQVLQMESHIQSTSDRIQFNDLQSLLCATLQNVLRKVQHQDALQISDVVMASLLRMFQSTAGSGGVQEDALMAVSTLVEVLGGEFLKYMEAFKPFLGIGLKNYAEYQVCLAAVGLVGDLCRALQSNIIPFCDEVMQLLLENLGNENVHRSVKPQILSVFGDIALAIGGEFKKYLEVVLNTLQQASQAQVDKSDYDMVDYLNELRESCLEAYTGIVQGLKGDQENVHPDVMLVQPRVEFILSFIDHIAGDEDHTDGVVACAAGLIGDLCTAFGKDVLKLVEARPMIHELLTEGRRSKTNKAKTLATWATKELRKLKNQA
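Inhibition scored from the CFP 486 nm/YFP 530 nm FRET ratio 45 min after adding 0.125 microM importin beta to 50 nM Rango biosensor preincubated 5 min with compound (room temperature, PBS with DTT, Tween-20, BSA). No-importin wells as positive control.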
Active calls of the source: *; ? = inconclusive; nt = not tested or not shown; & = joins results of further samples. This is a subset; the hit share may differ from the screen's.

SMILES	Rango release inh	miR-21 FLuc	GLA inh pH 4.5	Rango complex inh
CCOc1ccc(N2C(=O)CC(N3CC(C)OC(C)C3)C2=O)cc1 (stereo not drawn)	-11%	-4%	6	4.7%
O=C(OCCOc1ccccc1)c1cccc(S(=O)(=O)N2CCOCC2)c1	-1%	nt	nt	0.2%
COc1cc(N2CN=c3s/c(=C\c4ccccn4)c(=O)n3C2)cc(OC)c1OC	-19%	9%	-6	3.0%
CCOC(=O)c1c(C)oc(NC(=O)COc2ccc(Cl)cc2C)c1C#N	1%	-13%	1	-0.8%
CCOC(=O)c1ccc(-n2ccnc2)c(NC(=O)c2ccc(C(C)(C)C)cc2)c1	5%	-11%	-5	-0.3%
O=C(O)[C@H](Cc1ccccc1)N1C(=O)c2c(Cl)c(Cl)c(Cl)c(Cl)c2C1=O	22%	2%	nt	-0.6%
Cc1cc(OC(=O)c2ccccc2)n(CCC#N)n1	-1%	-9%	-1	4.8%
Cc1cccc(OCCNC(=O)CCc2ccccc2)c1	-2%	nt	nt	-0.5%
Cc1ccc(NC(=O)NC2CCCCCCC2)cc1C	-18%	-29%	nt	0.0%
CS(=O)(=O)N1CCN(C2Cc3ccccc3C2)CC1	16%	-1%	-2	6.0%
COc1ccc(CN(C)C(=O)CNC(=O)c2ccc(C)cc2)cc1	1%	-5%	nt	?
COCc1nc2ccccc2n1Cc1c(F)cccc1Cl	7%	-7%	1	1.2%
CC(C)COC(=O)C(C#N)c1nc2ccccc2nc1N1CCN(Cc2ccc3c(c2)OCO3)CC1 (stereo not drawn)	-25%	-5%	7	?
COc1ccc(C(=O)NCC(=O)OCc2ccc(Br)cc2)cc1	14%	1%	-2	-0.1%
COc1ccc([C@@H]2CC=C(C(=O)O)CN2S(=O)(=O)c2ccc(Cl)cc2)cc1	-10%	nt	nt	-2.0%
CN(Cc1ccco1)c1ncnc2ccc(-c3ccccc3Cl)cc12	-9%	nt	nt	1.3%
O=C(CNC(=O)c1ccc2ccccc2c1)OCC(=O)N1CCN(S(=O)(=O)c2ccc3ccccc3c2)CC1	7%	-3%	2	0.5%
COC(=O)c1cc(OC)c(OC)cc1NC(=S)N1CCC(C(N)=O)CC1	-5%	-2%	-3	0.0%
COc1ccc(-n2c(=O)c(CCC(=O)N(C)Cc3ccccc3C)nc3ccccc32)cc1	-15%	7%	-10	3.2%
Cc1ccc(OC(=O)CCNC(=O)c2ccccc2Cl)c(Br)c1	-15%	nt	nt	?
O=C1C2C3C=CC(C3)C2C(=O)N1c1n[nH]c(-c2ccccc2)n1 (stereo not drawn)	-7%	-7%	2	-0.9%
Cc1cc(=O)[nH]c(N)n1	0%	2%	2	-0.6%
CCO[C@H]1OC(C(=O)NC2CC2)=C[C@@H](C2CCCCC2)[C@@H]1CCCO	2%	5%	-1	0.5%
COc1ccccc1NC(=O)N1CCCC1	-6%	0%	8	0.7%

By substructure: the compounds so far containing a COOH group
SMILES	Rango release inh	miR-21 FLuc	GLA inh pH 4.5	Rango complex inh
O=C(O)[C@H](Cc1ccccc1)N1C(=O)c2c(Cl)c(Cl)c(Cl)c(Cl)c2C1=O	22%	2%	nt	-0.6%
COc1ccc([C@@H]2CC=C(C(=O)O)CN2S(=O)(=O)c2ccc(Cl)cc2)cc1	-10%	nt	nt	-2.0%

Further structures
SMILES	Rango release inh	miR-21 FLuc	GLA inh pH 4.5	Rango complex inh
Cc1cccc(OCCNC(=S)NC(=O)c2cccnc2)c1	-4%	0%	9	3.1%
N#Cc1nc(-c2cccs2)oc1NCc1ccccc1	0%	-31%	-12	2.0%
Cc1cccc2cc(CN(CC3CCCO3)C(=S)NCc3ccco3)c(=O)[nH]c12 (stereo not drawn)	14%	-1%	-7	-4.2%
COC(=O)c1ccc(COc2cccnc2[N+](=O)[O-])cc1	-5%	-35%	nt	0.0%
COc1ccccc1Nc1nnc(SCC(=O)c2cc(C)n(CC3CCCO3)c2C)s1 (stereo not drawn)	2%	-2%	-3	0.6%
CCOC(=O)c1c(C)[nH]c(C(=O)CN(C)CC(=O)Nc2ccccc2C(F)(F)F)c1C	-11%	nt	nt	-0.8%
O=C(OCC(=O)N1CCCC1=O)C1COc2ccccc2O1 (stereo not drawn)	-1%	-1%	3	-2.4%
CC(=O)OC(C(=O)NC1CCCCC1)c1ccncc1 (stereo not drawn)	-1%	-1%	-3	-0.6%
O=C(c1ccc(Cl)cc1)c1ccc(OCC(=O)N2CCOCC2)cc1	-2%	1%	-3	-2.5%
N#Cc1cn(-c2ccccc2)nc1-c1ccco1	-2%	-34%	5	1.1%
O=C1CC(N2CCOCC2)C(=O)N1c1cc(Cl)cc(Cl)c1 (stereo not drawn)	-7%	1%	6	1.2%
CN(C(=O)c1ccncc1)c1nnc(-c2ccncc2)s1	-8%	3%	-7	-1.1%
O=C1C2CCCN2c2ccc(S(=O)(=O)N3CCOCC3)cc2N1Cc1cccc(C(F)(F)F)c1 (stereo not drawn)	nt	-9%	1	nt
COC(=O)CN1C(=O)Nc2ccc(Br)cc2C1c1ccccc1 (stereo not drawn)	7%	-4%	-3	1.9%
CCOc1ccc(S(=O)(=O)N2CCC(C(=O)NCc3ccccn3)CC2)cc1Cl	-6%	8%	nt	1.8%
COc1ccc(CNC(=O)c2cc(C3CC3)on2)cc1	-5%	-40%	2	-2.5%
Cc1ccc(NC(=O)C2CCCN(c3nccc(C)n3)C2)c(C)c1 (stereo not drawn)	5%	1%	nt	13%
O=C(Nc1ccc(C(F)(F)F)cc1)C1CCCCN1S(=O)(=O)c1ccccc1 (stereo not drawn)	-5%	nt	nt	-1.7%
Cc1ccc(Nc2ccc(S(=O)(=O)N3CCOCC3)cc2[N+](=O)[O-])c(C)c1	-17%	-12%	-5	1.4%
COc1ccc(S(=O)(=O)n2nc(OC(=O)c3ccccc3Br)cc2N)cc1	-5%	-4%	-10	-1.5%
CCOc1ccccc1C(=O)Nc1cc(=O)n(C)c(=O)n1C	-23%	2%	nt	0.4%
COc1ccc(S(=O)(=O)NCCSC(C)(C)C)cc1Cl	-5%	-17%	2	-3.0%
COc1cc(S(=O)(=O)N2CCN(Cc3ccccc3)CC2)ccc1Br	-16%	-19%	-1	0.3%
Cc1cc(C)nc(NC(=O)CSc2nc3ccccc3o2)n1	-5%	-50%	1	-0.5%
O=C1ON=C(c2ccccc2)/C1=C/c1ccc(OS(=O)(=O)c2ccccc2)cc1	-5%	-16%	-5	0.3%
COc1ccc(CNS(=O)(=O)c2ccc(NC(=O)N3CCCCC3)cc2)cc1	4%	6%	nt	-2.4%
COC(=O)c1cccc(C(=O)N2CCCC(Nc3ccc4c(c3)OCCO4)C2)c1 (stereo not drawn)	-2%	-4%	nt	3.0%
O=C(CN(Cc1ccc(F)cc1)C(=O)CNS(=O)(=O)c1ccccc1)NCC1CCCO1 (stereo not drawn)	2%	-4%	nt	-0.5%
COC(=O)CN(C)C(=O)c1ccc2nc(Cc3cccc(Cl)c3)oc2c1	-1%	-58%	nt	5.3%
O=C(Cc1ccccc1)NCCCc1ccccc1	14%	-26%	-1	-2.7%
Cc1cc(Br)ccc1NC(=O)CN(C)C(=O)Cn1c(=O)cnc2ccccc21	0%	-4%	nt	3.6%
O=C(O)c1ccc(S(=O)(=O)c2ccccc2)cc1	8%	-9%	-9	3.3%
CC(C)CC(=O)NC1(C(F)(F)F)C(=O)N(Cc2ccccc2)C2=C1C(=O)CC(C)(C)C2 (stereo not drawn)	-10%	1%	4	4.0%
O=C(O)c1ccc(N2Cc3ccccc3C2)cc1O	?	-44%	-1	-1.4%
O=c1[nH]nc(-c2ccc(F)cc2)cc1Cc1ccccn1	10%	-7%	-7	-0.8%
CC(C)C[C@H]1CNC(=S)N1CC1CCCN1C[C@H](CC(C)C)N1C[C@H](CC(C)C)N(CC2CCCCCC2)C1=S (stereo partly drawn)	4%	nt	nt	-1.9%
COc1ccc(CCC(=O)N2CCN(C3CCCCC3)CC2)cc1	12%	-6%	-6	12%
CC(=O)c1ccc(C(=O)NC2CCCN(Cc3ccccc3F)C2)s1 (stereo not drawn)	4%	-1%	nt	-0.2%
CCC(C)NCCOc1cccc(Br)c1 (stereo not drawn)	2%	-6%	6	1.2%
COc1ccc2cc(/C=C/C(=O)c3ccco3)c(Cl)nc2c1	nt	-19%	0	nt
Cc1cc(=O)[nH]c2ccc(S(=O)(=O)NCc3ccccc3)cc12	-28%	-9%	nt	-3.7%
COc1ccc(C(=O)Nc2cccc(C(=O)N3CCN(C)CC3)c2)cc1	2%	-26%	1	0.0%
CCCCc1c(O)nc(SCC(=O)N2CCOCC2)[nH]c1=O	6%	-5%	6	-2.1%
CCOC(=O)C1CCN(C(=O)c2sc3nc(-c4ccc(F)cc4)cn3c2C)CC1	-4%	-5%	-2	?
O=C(CSc1nnc(Cc2cc(=O)[nH]c(=O)[nH]2)n1-c1ccc(Cl)cc1)N1CCc2ccccc21	nt	2%	4	nt
Cc1ccccc1NC(=O)c1cn(-c2ccccc2)nc1-c1ccccc1	18%	-1%&-2%	-19	0.5%
COc1ccc(OC)c(NC(=O)Nc2ccccc2C)c1	1%	-2%	0	-0.2%
Cn1c(Cc2ccccc2)nnc1SCC(=O)c1ccc(Br)s1	2%	-4%	5	-0.4%
COc1cccc(NC(=S)/C(=C(\[O-])c2cc(C)n(-c3ccccc3F)c2C)[n+]2ccc(N(C)C)cc2)c1	-12%	1%	-7	?
O=C1NC(=O)C2(COC(c3ccncc3)OC2)S1 (stereo not drawn)	32%	4%	-3	4.8%
COc1ccc(/C=C2/C(=N)N3N=C(CC(=O)N4CCCC4)SC3=NC2=O)cc1	2%	0%	nt	-4.3%
Cc1[nH]c2ccccc2c1C(=O)CN1CCCCC1C (stereo not drawn)	7%	-12%	6	-1.7%
Nc1c(Cl)cc(-c2csc(NC(CO)c3nc4ccccc4n3CCOCCO)n2)cc1Cl (stereo not drawn)	2%	nt	nt	-0.4%
COc1ccccc1CC(=O)OC(C)C(=O)Nc1ccc(S(=O)(=O)N2CCCCC2)cc1 (stereo not drawn)	10%	nt	nt	-5.5%
Cc1ccc(S(=O)(=O)n2nc(OC(=O)c3cccc(F)c3)cc2N)cc1	1%	3%	nt	-0.1%
Cc1nc2ccc(NC(=O)CS(=O)(=O)c3ccc(F)cc3)cc2s1	-9%	nt	nt	1.3%
Cc1cc(C)n2nc(SCc3nnc(-c4cccs4)o3)nc2n1	-13%	-4%	11	-0.7%
S=c1[nH]c(-c2ccc(Br)cc2)cn1CCc1ccccc1	5%	-3%	3	-0.8%
CSc1ccccc1OCc1cc(C(=O)N2CCC[C@H]2C(N)=O)no1	10%	-5%	nt	3.9%
CCN(CC)c1ccc(/C=N/NC(=S)NCc2ccco2)cc1	-7%	18%	1	?

Ordered by length of the SMILES (lowest first): three of the compounds above.
SMILES	Rango release inh	miR-21 FLuc	GLA inh pH 4.5	Rango complex inh
CC(=O)OC(C(=O)NC1CCCCC1)c1ccncc1 (stereo not drawn)	-1%	-1%	-3	-0.6%
CCOc1ccccc1C(=O)Nc1cc(=O)n(C)c(=O)n1C	-23%	2%	nt	0.4%
CCOc1ccc(N2C(=O)CC(N3CC(C)OC(C)C3)C2=O)cc1 (stereo not drawn)	-11%	-4%	6	4.7%

The listing continues:
SMILES	Rango release inh	miR-21 FLuc	GLA inh pH 4.5	Rango complex inh
O=C(NCc1ccccn1)c1nnc(Cc2ccc(Cl)cc2)o1	-1%	-8%	3	0.9%
CC(C)[C@H]1COCCS(=O)(=O)N1Cc1cccc(Cl)c1	0%	1%	nt	-2.2%
COc1cccc(CN(C)C(=O)CSCC(=O)Nc2cccc(C)c2)c1OC	-1%	nt	nt	1.6%
Cc1c(C(=O)c2cccc(F)c2)c2ccccn2c1CCC#N	5%	-8%	-9	4.2%
O=C(Cn1cc(/C=N/NC(=O)c2cccc(C(F)(F)F)c2)c2ccccc21)Nc1ccc(F)cc1	-18%	1%	9	4.0%
CCOC(=O)Sc1nc2ncncc2[nH]1	2%	nt	nt	3.7%
CC(=O)c1ccc(OCc2cc(C(=O)N(C)Cc3ccccn3)no2)cc1	-1%	-50%	nt	1.9%
CC[N+](CC)(CC#Cc1ccccc1)CC(=O)c1ccc(Cl)cc1	-6%	12%	-5	1.6%
Cc1ccc(OCC(=O)O/N=C(\N)c2ccccn2)cc1C	0%	-51%	0	0.2%
CCC(CC)C(=O)Nc1nnc(SCC(=O)NC2CCCCC2)s1	-3%	-1%	nt	-1.8%
